Source: PubChem
GIRK2 activ: activators of human GIRK2 potassium channels; 0.05% of 63,000 active; AID 1259325, 2017; calls only for hits at 25 µM; HEK293-GIRK2 thallium flux, Thallos fluorescence; G protein-activated inward rectifier potassium channel 2 (Homo sapiens), P48051;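 active = among the strongest 0.2% of first-round signals and kept after retests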;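 also: first round at about 10 µM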
Target sequence (P48051 whole entry, looked up): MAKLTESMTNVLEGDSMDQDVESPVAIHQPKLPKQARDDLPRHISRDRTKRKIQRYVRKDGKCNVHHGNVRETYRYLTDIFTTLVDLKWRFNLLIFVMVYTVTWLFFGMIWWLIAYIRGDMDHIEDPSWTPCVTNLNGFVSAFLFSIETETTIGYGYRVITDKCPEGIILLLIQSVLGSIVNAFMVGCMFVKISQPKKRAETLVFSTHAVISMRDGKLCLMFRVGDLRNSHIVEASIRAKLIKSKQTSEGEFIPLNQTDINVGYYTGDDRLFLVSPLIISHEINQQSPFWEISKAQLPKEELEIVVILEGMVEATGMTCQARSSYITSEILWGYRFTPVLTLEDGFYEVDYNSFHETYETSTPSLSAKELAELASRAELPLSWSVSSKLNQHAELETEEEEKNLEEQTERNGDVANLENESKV
Calls only; i = inactive. A portion of the library; count on the stated rates, not on these rows.

Structure	GIRK2 activ
CSc1cccc2sc(N3CCN(C(=O)Nc4cccs4)CC3)nc12	i
CCOc1ccc(C(C)(C)C)cc1S(=O)(=O)N1CCC(C(N)=O)CC1	i
CC(=O)Cn1c(=O)c2c(nc3n(-c4ccccc4F)c(-c4ccccc4)cn23)n(C)c1=O	i
Cc1n[nH]c(C)c1S(=O)(=O)NCCn1ncc2c(N3CCCC3)ncnc21	i
O=C(Nc1nnc(-c2ccco2)o1)c1cnccn1	i
CCOc1ccc(/C=C/C(=O)Nc2ccccc2CC)cc1	i
CSc1cccc(NC(=O)CN(C)c2nc3c(Cl)cccc3s2)c1	i
CCC(C(=O)NCC1CCS(=O)(=O)C1)c1ccccc1 (centres undefined)	i
CCOC(=O)c1c(C)oc(N)c1C(N)=O	i
Cc1ccc(S(=O)(=O)N2CCN(C(=O)C(C)Cn3nc(C)c(C)c3C)CC2)cc1C (centres undefined)	i
CC(C)=CCC/C(C)=C/CC/C(C)=C/C(O)P(=O)(O)O (centres undefined)	i
CCOc1ccc(S(=O)(=O)N2CCC(CSc3nccn3C)CC2)cc1	i
COc1ccc(-c2noc(-c3ccc(=O)n(CC(=O)Nc4cc(OC)c(OC)c(OC)c4)c3)n2)cc1	i
CCOc1ccc(Cl)cc1S(=O)(=O)N1CCCC(C)C1 (centres undefined)	i
CCCn1c(=O)c2c(nc3n2CC(C)CN3c2cc(C)ccc2OC)n(C)c1=O (centres undefined)	i
COc1ccc(-c2nnc(NC(=O)Nc3ccccc3)o2)c(OC)c1	i
CN(C)CC1COCCN1C(=O)c1ccccc1C(=O)c1ccccc1 (centres undefined)	i
O=C(Nc1cccc(C(F)(F)F)c1)N1CCCC(c2nnc(C(F)(F)F)o2)C1 (centres undefined)	i
N#Cc1ccc(-c2sc3nc(-c4ccccc4)ccc3c2N)cc1	i
Cn1c(=O)c(C(=O)Nc2cc(Cl)ccc2Cl)cc2cccnc21	i
O=C(CC1OC(=O)c2ccccc21)c1cc(O)ccc1O (centres undefined)	i
COc1ccc(N2CC(c3nc(-c4cccc(OC)c4OC)no3)CC2=O)cc1Cl (centres undefined)	i
O=C(Cc1ccc([N+](=O)[O-])cc1)c1ccc(O)cc1O	i
Cc1ccc(-c2nnc(CN3CCN(c4ccccc4)CC3)o2)cc1	i
CC(CCc1ccccc1)NC(=O)C1CCN(S(=O)(=O)N2CCCC2)CC1 (centres undefined)	i
Cc1ccc2c(c1)N(C(=O)Cn1nc3ccc(SC(C)C)nn3c1=O)CCO2	i
Cc1cc(C)n(-c2nc(CCNC(=O)CN3C(=O)CCC3=O)cs2)n1	i
O=C(C(=O)N1CCN(C(c2ccccc2)c2ccccc2)CC1)c1c[nH]c2ccccc12	i
Cc1cccc(Nc2nc(CC(=O)N3CCN(c4ccccc4Cl)CC3)cs2)n1	i
Cc1nc(C)c(CNC(=O)C2CCCN(c3ccc(-c4ccccc4C)nn3)C2)s1 (centres undefined)	i
Cc1cc(C)cc(N2CC(c3nc(-c4ccc(N(C)C)cc4)no3)CC2=O)c1 (centres undefined)	i
CC(C)(C)c1ccc(NC(=O)N(Cc2ccoc2)Cc2cccs2)cc1	i
O=C(NCC1(O)CCOc2ccccc21)c1ccoc1 (centres undefined)	i
COc1ccc(NC(=O)CCc2c(C)[nH]c(=O)n(C)c2=O)cc1OC	i
O=C(CCSc1ccc(Cl)cc1)Nc1ccc2ncsc2c1	i
O=C(Cn1cnc2c(sc3ncccc32)c1=O)NCc1ccc2c(c1)OCO2	i
C=C(C)COc1ccc(-c2nc(N)nc(C)c2Oc2ccccc2Br)c(O)c1	i
CC(NC(=O)C(=O)NCCCN1CCN(c2ccccc2)CC1)c1ccccc1 (centres undefined)	i
O=C(Cc1cccs1)N1CC(Oc2nc3ccccc3s2)C1	i
CCOC(=O)Cn1c(N2CCCCCC2)nc2c1c(=O)[nH]c(=O)n2C	i
CCOC(=O)c1cccc(NC(=O)Cn2cc(-c3nc(-c4ccc(Cl)cc4)no3)ccc2=O)c1	i
Cn1cc(-c2ccco2)nc1CCNC(=O)c1cc(C2CC2)on1	i
CS(=O)(=O)N1CCN(c2ccc(-n3cccc3)nn2)CC1	i
O=C(COC(=O)C(c1ccccc1)c1ccccc1)Nc1ccc2c(c1)OCO2	i
COc1ccc(NC(=O)c2ccc3c(c2)OCO3)cc1N1CCCC1=O	i
COCCN(Cc1ccoc1)S(=O)(=O)Cc1ccccc1Cl	i
COc1ccc(-n2c(SCc3nc(-c4cccs4)no3)nc3[nH]ncc3c2=O)cc1Cl	i
CC1CCc2c(sc3nc(CCC(=O)NCCc4ccc(S(N)(=O)=O)cc4)[nH]c(=O)c23)C1 (centres undefined)	i
O=C(NCCNc1ccc(Nc2ccncc2)nn1)c1cc2ccccc2oc1=O	i
COC(=O)c1ccc(NC(=O)CN2CCN(Cc3nc4ccccc4n3C)CC2)cc1	i
CCc1cc(=O)[nH]c(-n2nc(-c3ccccc3)cc2NC(=O)Nc2ccc(OC)cc2)n1	i
Cc1cc(C)n(-c2nc(CCNC(=O)c3ccc(OC(F)(F)F)cc3)cs2)n1	i
CC1CCN(C(=O)C2CCN(c3c(C#N)cnc4ccc(F)cc34)CC2)CC1	i
Cn1c(=O)c2c(nc3n2CCN3c2ccc(OCC(=O)C(C)(C)C)cc2)n(C)c1=O	i
CCN1C(=O)C(C)(C)COc2cc(NS(=O)(=O)/C=C/c3ccccc3)ccc21	i
O=C(Cn1c(-c2cccnc2)nc2ccccc21)Nc1ccc(OC(F)(F)F)cc1	i
O=C1CC(c2nc3ccccc3n2Cc2ccccc2)CN1c1ccc(Cl)cc1 (centres undefined)	i
O=C(Nc1ccc2c(c1)OCO2)N(Cc1ccsc1)CC(F)(F)F	i
O=C1CCC(C(=O)Nc2cnc(N3CCN(c4ccccc4)CC3)nc2)N1 (centres undefined)	i
CC(C)NC(=O)N1CCN(CC(O)c2cccs2)CC1 (centres undefined)	i

Further records:
Structure	GIRK2 activ
CCc1c(C(=O)Nc2ccccc2F)nnn1-c1ccc2noc(-c3ccccc3)c2c1	i
COc1ccc2c(CN3CCC(Cc4ccccc4)CC3)cc(=O)oc2c1	i
Cc1nnc(C2CCCN(C(=O)Cc3ccc(F)cc3)C2)s1 (centres undefined)	i
Cc1ccc(S(=O)(=O)c2cn(CC(=O)Nc3ccc(F)cc3)c3cc4c(cc3c2=O)OCO4)cc1	i
CCn1cnc2c(-c3ccccc3)cn(CC(=O)Nc3ccccc3C)c2c1=O	i
O=C(CN1CCC(c2nc3ccccc3[nH]2)CC1)Nc1ccc(C(F)(F)F)cc1	i
Cc1ccc(S(=O)(=O)NC(=O)NNC(=O)NC2CCCCC2)cc1	i
CCOc1ccc2cccc(NC(=O)c3cnccn3)c2n1	i
C#CCn1c(=NC(C)=O)sc2cc(F)ccc21	i
Cc1cc(SCC(=O)Nc2ccccc2C)nc(-c2ccc(F)cc2)n1	i
CC(=O)Cn1c(=O)c2c(nc3n(-c4ccccc4C)c(C)cn23)n(C)c1=O	i
O=C(Cn1cc(S(=O)(=O)N2CCCCCC2)ccc1=O)NCc1ccccc1	i
Cc1nccn1-c1ncc(NC(=O)c2ccc(C(F)(F)F)cc2)cn1	i
CCCCCC#CCC#CCCCCCCCC(=O)O	i
COc1ccc(Cl)cc1S(=O)(=O)N1CCCCCC1	i
COc1cc(CCN2C(=O)c3cccc4cccc(c34)C2=O)c(S(=O)(=O)N2CCN(C)CC2)cc1OC	i
O=C(NCCn1ncccc1=O)c1cccc(-n2cnnn2)c1	i
O=C(Nc1nc2ccc(Cl)cc2s1)C1CCN(c2ccc(-n3cccn3)nn2)CC1	i
COC(=O)Nc1ccc2c(c1)C(=O)NCC2	i
Cc1cc2nc(N(Cc3ccccn3)C(=O)c3ccc(N4C(=O)CCC4=O)cc3)sc2cc1C	i
O=C(NC1CC1)c1ccc2c(=O)nc3c(-c4ccccc4)n[nH]n3c2c1	i
O=C(NCCc1ccccc1)N1CCN(Cc2nnnn2-c2ccc(Cl)cc2)CC1	i
COc1ccc(F)cc1S(=O)(=O)N(Cc1ccoc1)Cc1cccs1	i
O=C(O)CCCn1cnc2ccccc2c1=O	i
Cc1[nH]n(-c2ccccc2)c(=O)c1C(=O)c1ccccc1	i
Cc1oc(-c2cccc(Cl)c2)nc1Cn1nnc(C(=O)NCc2ccc(Cl)cc2)c1N	i
Cc1noc(CNC(=O)Cc2c(C)noc2C)n1	i
O=C(c1cc(-c2ccccc2)on1)N1CCN(CC(O)c2cccs2)CC1 (centres undefined)	i
CCOC(=O)c1sc2ccccc2c1S(=O)(=O)N1CCOCC1	i
COc1ccc(C(=O)Nc2ccc(S(=O)(=O)Nc3cc(OC)ncn3)cc2)c(OC)c1	i

Reformatted with the structure last: 2 of the compounds above.
GIRK2 activ | canonical_smiles
i | Cc1ccc(S(=O)(=O)NC(=O)NNC(=O)NC2CCCCC2)cc1
i | CCOc1ccc2cccc(NC(=O)c3cnccn3)c2n1

The main list resumes, starting 5 compounds before the break.
Structure	GIRK2 activ
Cc1oc(-c2cccc(Cl)c2)nc1Cn1nnc(C(=O)NCc2ccc(Cl)cc2)c1N	i
Cc1noc(CNC(=O)Cc2c(C)noc2C)n1	i
O=C(c1cc(-c2ccccc2)on1)N1CCN(CC(O)c2cccs2)CC1 (centres undefined)	i
CCOC(=O)c1sc2ccccc2c1S(=O)(=O)N1CCOCC1	i
COc1ccc(C(=O)Nc2ccc(S(=O)(=O)Nc3cc(OC)ncn3)cc2)c(OC)c1	i
ON=C1CCc2cc(-c3nc(C4CCNCC4)[nH]c3-c3ccncc3)ccc21	i
COc1cccc(C2c3c(oc4ccc(F)cc4c3=O)C(=O)N2c2ccccn2)c1 (centres undefined)	i
Nc1ncnc2c1c(I)cn2[C@H]1O[C@@H](CO)[C@H](O)[C@@H]1O	i
COc1ccccc1CNC(=O)c1ccc2c(=O)n(-c3ccc(F)cc3)c(N3CCCC3)nc2c1	i
Cc1ccc(-c2ccc(N3CCCC(C(=O)NCc4ccc5c(c4)OCO5)C3)nn2)cc1C (centres undefined)	i
COc1ccc(CC(=O)Nc2nnc(C3CC(=O)N(c4ccccc4)C3)o2)cc1C (centres undefined)	i
Cc1cc(=O)[nH]c(-n2nc(-c3cccs3)cc2NC(=O)c2c(F)cccc2F)n1	i
CC(C)CCNC(=O)Cn1c(=O)c(S(=O)(=O)c2ccccc2)cc2ccccc21	i
Cc1cccc(-c2nnc(NC(=O)c3cc(C)oc3C)o2)n1	i
CCN1CCc2c(sc(NC(=O)c3ccc(F)cc3)c2-c2nc3ccccc3s2)C1	i
CCOC(=O)c1sc(NC(=O)CSc2nnc(CSc3nc(C)cc(C)n3)n2C)nc1C	i
COc1ccccc1-c1cc(C(=O)NCC(F)(F)F)[nH]n1	i
O=C(NCCCn1ccnc1-c1ccccc1)NCc1cccc2ccccc12	i
Cc1ccc(Cn2cc(C(=O)NNC(=O)Nc3ccccc3)ccc2=O)cc1	i
COc1ccccc1NS(=O)(=O)c1ccc(OC)c(N(C)S(C)(=O)=O)c1	i
Cc1oc2cc(OC(=O)C3CCCCC3)ccc2c(=O)c1-c1nc2ccccc2s1	i
CCOc1ccc(NC(=O)C(=O)NCC2CCN(C(=O)c3ccoc3)CC2)cc1	i
CCOC(=O)c1ccccc1NC(=O)CN1CC(c2nc(C)no2)C1	i
O=C(CSc1nnc(Cn2ccc(=O)[nH]c2=O)o1)NC1CCS(=O)(=O)C1 (centres undefined)	i
COc1ccc(OC)c2sc(N(CC3CCCO3)C(=O)c3ccc(F)c(F)c3)nc12 (centres undefined)	i
COc1ccc(-c2nc(NC(=O)c3cc4ccccc4o3)n[nH]2)cc1	i
Cc1ccc(S(=O)(=O)c2c(C)cc(C)n(CC(=O)Nc3ccccc3C)c2=O)cc1	i
COCCN1COc2ccc3c(c2C1)O/C(=C\c1ccccc1OC(F)F)C3=O	i
CCOc1cc(C(=O)Nc2ccc3cn[nH]c3c2)cc(OCC)c1OCC	i
CC(C)C(=O)N1CCCc2ccc(NC(=O)C(=O)NCC3(c4cccs4)CCCC3)cc21	i
Cc1csc(NC(=O)Cc2csc(Nc3ccc(OC(F)(F)F)cc3)n2)n1	i
Cn1cccc(C(=O)N2CCOC(c3cc(Cl)cc(Cl)c3)C2)c1=O (centres undefined)	i
N#CCSc1ccc(-c2ccccc2Cl)nn1	i
Cc1noc(-c2cccnc2SCC(=O)NCc2cccc(Cl)c2)n1	i
Cc1ccc(C#N)c(=O)n1CC(=O)Nc1cccc(Cl)c1	i
CCOC(=O)CN1CCC(c2nnc(-c3ccc(F)cc3)o2)CC1	i
O=C(Cn1nc2ccc(C(=O)NCc3ccccc3)cn2c1=O)Nc1ccc2c(c1)OCO2	i
CC(C)S(=O)(=O)c1ccc(CC(=O)N2CCc3nc(NC(=O)NC4CCCC4)sc3C2)cc1	i
COc1ccc(F)cc1S(=O)(=O)Nc1ccc2c(c1)N(S(=O)(=O)c1ccc(F)cc1)CCC2	i
COc1ccc(C(=O)N2CCC(C(=O)Nc3nccs3)CC2)cc1OC	i
COc1cccc(C(O)CN2CCN(c3cccc(OC)c3)CC2)c1 (centres undefined)	i
Cc1cc(=O)n2c(-c3ccc(NC(=O)Nc4ccc(F)cc4)cc3)csc2n1	i
CN(CC#CCNC(=O)CSCc1ccccc1)Cc1ccccc1	i
O=C(NCC1(CO)CC1)C(=O)Nc1ccc(OC(F)(F)F)cc1	i
Cc1ccc(N2CCN(C(=O)Cn3cnc4c([nH]c5ccccc54)c3=O)CC2)c(C)c1	i
